# ugtP null kill – growth inhibition of S. aureus ugtP deletion strain | S. aureus RN4220 ugtP deletion, OD600 growth, 16 h; some inactives read as strong as hits | growth inhibition, % (concentration not given with the values) | 330,000 compounds, 0.54% hits;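 active = z-score under -3 and OD600 up to 0.15 on both plates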;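 also: plate controls were untreated wells for no effect and antibiotic for full effect; wells of about 80 µL received 100 nL stock; the first replicate is given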
# Mtb hypoxia rep – reduces hypoxia-regulated biosensor signal in M. tuberculosis; M. tuberculosis hypoxia-regulated fluorescent reporter, fluorescence; fluorescence inhibition, % (test concentration not listed); 300,000 compounds, 0.1% hits; AID 1159583;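 active = 35 to 45% if threefold the growth effect, above 45% if 1.5-fold the growth effect; inactive = the rest, general growth blockers included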;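 also: wells of about 50 µL received 100 nL stock; 0% = vehicle wells and 100% = reference inhibitor wells; whole bacteria with a GFP reporter of the hypoxia response; strong numbers were not always called active; many hits fall short of the cut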
# PrP 5UTR inh – suppresses PrP 5' UTR mRNA reporter expression; cell-based PrP 5' UTR mRNA reporter, plate reader; inhibition, % (no concentration beside the values); 340,000 compounds, 0.35% hits; AID 488862;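 active = every replicate at 50% or more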;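 also: 0 = median of the neutral control wells; tested in H4 reporter cells; numbers are from one replicate; inactives centre near -14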
# Autofluor counter – counter-screen for toxin protease inhibitors: compound fluorescence | fluorescence intensity (no concentration beside the values) | 360,000 compounds, 3.1% hits | AID 624483 | compound autofluorescence counterscreen, microsphere flow cytometry; hits give high values;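 active = at least 3 SD above the mean of all compounds, about 16000 in these data; inconclusive = too few beads counted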;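 also: 100 nL of 1 mM stock went into each well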
# RN4220 kill – kills Staphylococcus aureus RN4220. AID 1259311. S. aureus RN4220 growth, OD600, 16 h. 330,000 compounds, 0.33% hits. inhibition, % (concentration not given with the values);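 active = z-score of -3 or lower and OD600 up to 0.18 on both plates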;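 also: plate controls were untreated cells for no effect and reference antibiotic for full effect; stock transfer was 100 nL into about 80 µL; one replicate is shown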
# BJeLR viability – BJeLR cell viability loss; BJeLR (HRASV12) viability, CellTiter-Glo ATP luminescence, 48 h; reference of the scale not given here; inhibition, % (concentration not given with the values); 300,000 compounds, 0.17% hits;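 active = replicate mean above 50%; inconclusive = above 50% but judged a plate artefact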;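 also: 50 nL library stock added to about 25 µL; numbers are from one replicate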
# Mtb hypoxia rep growth – also measured in Mtb hypoxia rep; calls as there; growth inhibition, %; measured here: M. tuberculosis growth (absorbance);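 0% = vehicle and 100% = reference antibiotic; read after six days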
# An asterisk follows results filed as active; ? = inconclusive; . = no result given.
SMILES,ugtP null kill,Mtb hypoxia rep,Mtb hypoxia rep growth,PrP 5UTR inh,Autofluor counter,RN4220 kill,BJeLR viability
CCOc1ccccc1Nc1nc(N2CCCC2)nc(N2CCOCC2)n1,8,0,8,-11,3994,1.9,7
Cc1nn(CCOc2ccccc2)c(=O)n1-c1ccccc1F,-1,0,2,-35,9653,0.1,6
COCCNC(=O)c1onc(CSc2ccc(F)cc2)c1C(=O)NCCOC,0,4,6,-12,3397,4.5,-3
CC(=O)NC(c1ccccc1)c1cc([N+](=O)[O-])c2cccnc2c1O (centres undefined),33,4,9,-3,3597,34,12
O=c1c2c3c(sc2[nH]c(=S)n1Cc1ccco1)CCC3,-12,4,-4,-19,4933,12,7
COc1cc(/C=C(\CCC(=O)O)c2nc3ccccc3s2)ccc1OCC(=O)Nc1c(Cl)cccc1Cl,0,7,8,.,?,38,.
CCN(CC)Cc1c(O)c(Cl)cc2c(C)cc(=O)oc12,-1,9,5,-18,4447,0.3,-5
COC(=O)c1sccc1NC(=O)CSc1ccc(Cl)cc1,24,10,5,-11,4208,4.4,-4
CCc1ccc(-c2nc(SCC(=O)N(C)C3CCS(=O)(=O)C3)n[nH]2)cc1 (centres undefined),1,9,7,-15,.,4.4,-5
Clc1ccc(/C=C/c2nc3ccccc3[nH]2)c(Cl)c1,92*,17,4,37,15713,75,25
COc1cc(Cl)ccc1OCc1cc(C(=O)N2C[C@]3(C)C[C@H]2CC(C)(C)C3)no1,-22,0,15,-29,7043,0.9,-8
Cc1nc(-c2ccc(NS(C)(=O)=O)cc2)cs1,0,.,.,12,2213,-3.0,.
O=C(CSc1nn(-c2ccc(Cl)cc2)c(=S)s1)N1CCN(C(=O)c2ccco2)CC1,14,5,-5,11,6103,1.6,14
COc1ccc(-c2cc(C)no2)cc1S(=O)(=O)NCc1ccc(OC(C)C)cc1,4,1,5,-10,5737,2.8,-8
Cn1c(Cn2c(=O)sc3ccccc32)nnc1SCC(=O)Nc1cccc(Cl)c1,5,.,.,-29,6280,-0.1,.
Cc1nc(CS(=O)(=O)c2ccccc2)cc(Sc2ccc(Cl)cc2Cl)n1,10,.,.,-8,2598,1.7,-2
C#CCOCCOCCOCCNc1nc(N2CCN(C(=O)CCCCCCCCCCNC(=O)C(CCCCN)n3cc(CCCC(=O)O)nn3)CC2)nc(N2CCN(C(=O)CCCCCCCCCCNC(=O)C(CCCCN)n3cc(CCCC(=O)O)nn3)CC2)n1 (centres undefined),4,1,3,.,.,3.6,.
Cc1ccc(NC(=S)NC(=O)c2cncc(Br)c2)c(C)c1,23,-7,-5,.,4298,2.5,-4
CC(C)N(C(=O)[C@H]1C[C@H](CC(=O)NCCCN(C)C)C(=O)N2CCc3c([nH]c4ccc(Cl)cc34)[C@]12C)C(C)C,2,-3,5,-11,2852,1.2,.
CC1=CC2=NC(=O)CC(C)(C(=O)N(CC(=O)NC3CCCC3)Cc3ccccc3)N2C=C1 (centres undefined),8,10,3,1,5539,2.3,-3
O=C(COC(=O)CCC(=O)c1cccs1)NC(=O)c1ccc(OC(F)F)cc1,9,-9,0,-15,3996,2.7,13
Cc1cc2cc(CNC(=O)c3ccc(Br)o3)ccc2n1C,-8,-4,15,2,2858,-7.6,-5
CN(C(=O)CN(C)S(=O)(=O)c1ccc(F)cc1)c1c(N)n(Cc2ccccc2)c(=O)[nH]c1=O,1,0,-3,-21,.,4.1,-5
Cc1cc(C)nc(NN=Cc2cn[nH]c2-c2ccccc2)n1,-2,1,13,.,.,-0.2,.
CC(=O)N1CCc2cc(S(=O)(=O)CCC(=O)N3CCN(c4ccccc4F)CC3)ccc21,-3,-3,5,-10,5559,0.2,1
O=C(c1cc(N2CCCCC2)nc2ccccc12)N1CCOCC1,9,3,-2,-34,8001,1.3,9
N#CCCNS(=O)(=O)c1ccc(C(=O)OCC(=O)Nc2ccc3c(c2)OCO3)cc1,9,4,-4,-17,6479,4.8,.
O=C(C1=C[C@H](c2ccc(C(F)(F)F)cc2)C[C@H](OCCCCO)O1)N1CCN(Cc2ccccc2)CC1,.,.,.,-16,3476,.,-2
COCC1CCCCC1OS(N)(=O)=O (centres undefined),-1,-6,2,-6,3995,1.6,-7
COc1cc(OC)c2c(-c3cccc(/C=C/c4ccc(F)cc4)c3)cc(=O)oc2c1,4,-7,13,-48,3564,-1.3,.
OCCC1CN(Cc2nc3ccccc3s2)CCN1CCc1ccccc1 (centres undefined),12,-2,-12,-15,4525,2.9,4
O=C(Nc1ccc(Br)cc1)c1ccc(Br)c(S(=O)(=O)Nc2cccnc2)c1,-3,-1,-10,9,9677,11,-2
CC(=O)Nc1c(Cl)n(C(C)=O)c2ccccc12,3,.,.,-12,2336,2.5,3
Cc1ccc(NC(=S)N(C)N)cc1Cl,5,8,0,-23,4520,9.8,3
COC(=O)C1=C(c2ccc(OCc3ccccc3)cc2)CC2CCC1N2C(=O)NCc1ccccc1 (centres undefined),-6,2,5,.,.,-5.5,.
CC(=O)Oc1ccccc1/C=C/c1ccc2ccccc2[n+]1C,3,9,0,-62,3228,2.7,-1
CCCCC=CC(NC(=O)c1ccc(C(=O)OC)cc1)c1ccccc1 (centres undefined),-1,-12,-1,.,.,1.7,.
COc1ccc([N+](=O)[O-])cc1NC(=O)CCSCCc1ccccn1,-5,0,-7,-6,5894,2.8,-2
Cc1coc(NC(=O)CSc2nc(-c3ccncc3)cc(C(F)(F)F)c2C#N)n1,-5,16,8,-11,?,5.6,-5
COc1cc(NC(=O)C23CC4CC(C2)CC(n2nnc(C)n2)(C4)C3)c(OC)cc1Cl,1,10,13,-57,8578,3.0,-3
CC(C)CCNC(=O)CN1C(=O)CN=C(c2ccccc2)c2ccccc21,12,10,5,-13,5897,3.5,0
O=C(Nc1cccc2c1C(=O)NC2=O)c1ccccc1[N+](=O)[O-],3,11,12,-23,3366,2.9,-5
CC(=O)OC1=Cc2c(ccc3ccc(=O)oc23)OC1(C)C,2,.,.,-3,1948,1.4,10
O=C1Nc2ccccc2C1(O)C/C(=N/O)c1ccccc1 (centres undefined),.,.,.,-20,4543,.,11
COC(Cn1c(C)c(C(C)=O)c(C(C)=O)c1C)OC,-3,4,10,-3,2455,-18,3
CN(C(=O)c1cccc(C#N)c1)c1nnc(-c2ccncc2)s1,5,5,2,-11,4031,2.6,.
O=c1cc(-c2ccco2)nc(SCc2cccc(Cl)c2)[nH]1,-5,20,7,-6,3567,13,5
COCCNC(=O)c1ccc(-n2c(SCc3ccncc3)nc3ccccc3c2=O)cc1,6,2,0,-10,3965,7.2,4
CCC(C)NC(=O)COCc1cc(-c2ccc3c(c2)OCO3)on1 (centres undefined),-10,8,-3,-11,3790,1.7,-1
COc1ccc(C(=O)NCCNc2ccc([N+](=O)[O-])cc2)cc1OC,3,4,-2,-13,3732,-0.5,-8
O=C(c1cccs1)N1CCN=C1SCc1ccccc1F,6,0,1,-32,5417,6.6,10
O=C(Cn1cnc2sc3c(c2c1=O)CCCC3)NCC(=O)Nc1c(F)cccc1F,0,-14,3,-4,5866,1.1,0
CCOC(=O)CN(c1cc([N+](=O)[O-])ccc1OC)S(C)(=O)=O,2,10,4,-28,4577,6.0,1
CN(Cc1ccc2c(c1)OCCO2)C(=O)CSc1ncnc2sccc12,1,-2,7,-19,6572,4.3,.
S=C1SCN(Cc2ccccc2)CN1Cc1ccccc1,10,3,12,-16,3626,15,9
CCCn1c(O)c(N=NC(=O)CNC(=O)Cc2ccc(OC)cc2)c2ccccc21,8,12,-1,-18,4202,3.3,-6
COc1ccc(CCNC(=O)C2CCC(=O)N(C3CCCCCC3)C2)cc1 (centres undefined),-1,1,1,2,5134,2.2,-1
COc1ccc(NC(=O)CC2C(=O)N(c3ccc(Cl)cc3)C(=S)N2CCc2ccncc2)cc1 (centres undefined),-15,2,13,-11,12079,-6.6,-6
CC(C)OC(=O)c1cc2c(ccn2C)n1CC(=O)N(Cc1ccccc1)c1ccccc1,-3,8,2,-10,3102,2.9,1
COc1ccc(NC(=O)/C(=C/c2ccc(OC(C)=O)c(OC)c2)NC(C)=O)cc1,7,7,4,4,9104,2.0,-13
# Remaining list, next part
SMILES,ugtP null kill,Mtb hypoxia rep,Mtb hypoxia rep growth,PrP 5UTR inh,Autofluor counter,RN4220 kill,BJeLR viability
COc1ccc(C(=O)CSc2nc3[nH]ncc3c(=O)[nH]2)cc1,4,4,7,-20,2978,1.6,1
O=C(Nc1ccc(F)cc1F)N1CCN(C/C=C/c2ccccc2)CC1,7,5,6,-17,6072,-0.2,5
COC(=O)c1sc2nc(CN3CCN(c4ccc(OC)cc4)CC3)[nH]c(=O)c2c1C,0,-8,0,-63,2228,2.6,-10
COc1cc2nc(NC(=O)c3ccco3)sc(=O)c2cc1OC,7,13,6,-33,3471,2.3,-3
Cc1ccnc(NC(=O)c2ccc([N+](=O)[O-])o2)c1,45,3,1,5,7093,8.0,-17
COc1ccc(CNC(=S)Nc2cc(OC)ccc2OC)cc1,4,-7,6,-12,2344,0.6,-9
CCC(C)(C)NC(=O)CN(C(=O)C(=O)Nc1ccc2c(c1)OCCO2)C1CC1,7,6,-11,-41,3193,1.5,-5
Cc1ccc(NC(=S)NC(=O)c2ccc(-c3ccccc3)cc2)cc1,6,.,.,-15,4721,5.5,-4
CCC(=O)Nc1c2c(nn1-c1ccc(OC)cc1)CS(=O)C2 (centres undefined),12,8,8,8,5915,2.1,2
CC(C)c1ccc(OCCCN2CCCC2)cc1,10,15,6,-6,3828,4.4,-5
CCN(CC)CCCNC(=O)c1ccc(S(=O)(=O)Nc2ccc(C)c(C)c2)cc1,-1,20,9,-11,3812,-1.4,.
COC(=O)Cc1c(C)nc2nc(-c3ccco3)[nH]n2c1=O,7,.,.,-24,2474,-2.7,-4
COC(C[C@H](O)CC(=O)[C@H](C)OCc1ccccc1)OC,.,.,.,-24,2957,.,2
CC1c2c([nH]c3ccccc23)CCC1C(=O)O (centres undefined),8,2,-3,-13,2093,4.4,-3
CC1CCN(CCc2nc3cc(NC(=O)COc4ccc([N+](=O)[O-])cc4)ccc3n2C)CC1,5,0,-4,-11,5849,3.6,4
O=C(NCC1CCCO1)c1cc(C(=O)c2ccc(Cl)cc2Cl)c[nH]1 (centres undefined),-7,-4,6,-24,4255,0.5,4
COc1ccc(NC(=O)/C=C/c2cc(Br)ccc2OC)cc1,.,.,.,-1,2504,.,2
Cn1nccc1C(=O)N1CCCC(C(=O)c2cccc3ccccc23)C1 (centres undefined),-7,7,-11,-25,4519,-1.7,2
Cn1c(Cn2c(=O)sc3ccccc32)nnc1SCC(=O)Nc1cccc(F)c1,2,.,.,-17,5608,-0.1,.
CCOC(=O)NC(=O)CN1C(=O)NC(C)(c2ccccc2)C1=O (centres undefined),-3,1,9,-34,7914,4.7,8
O=C(O)c1ccc(NS(=O)(=O)c2ccc(NC(=O)c3ccccc3Cl)cc2)cc1,1,-4,9,-12,3422,1.1,6
Cc1cc(=O)n2[nH]cc(C(=O)O)c2n1,-2,-4,11,-1,4362,-3.2,-3
O=C(CCC(=O)Nc1ccccc1Cl)N/N=C/c1ccccc1,.,.,.,-30,2110,.,4

# Among those listed so far, these have a CF3 group.
SMILES,ugtP null kill,Mtb hypoxia rep,Mtb hypoxia rep growth,PrP 5UTR inh,Autofluor counter,RN4220 kill,BJeLR viability
O=C(C1=C[C@H](c2ccc(C(F)(F)F)cc2)C[C@H](OCCCCO)O1)N1CCN(Cc2ccccc2)CC1,.,.,.,-16,3476,.,-2
Cc1coc(NC(=O)CSc2nc(-c3ccncc3)cc(C(F)(F)F)c2C#N)n1,-5,16,8,-11,?,5.6,-5

# Arranged by SMILES length (ascending): some entries from above
SMILES,ugtP null kill,Mtb hypoxia rep,Mtb hypoxia rep growth,PrP 5UTR inh,Autofluor counter,RN4220 kill,BJeLR viability
Cc1cc(=O)n2[nH]cc(C(=O)O)c2n1,-2,-4,11,-1,4362,-3.2,-3
COc1ccc(NC(=O)/C=C/c2cc(Br)ccc2OC)cc1,.,.,.,-1,2504,.,2
CCOC(=O)NC(=O)CN1C(=O)NC(C)(c2ccccc2)C1=O (centres undefined),-3,1,9,-34,7914,4.7,8
Cn1nccc1C(=O)N1CCCC(C(=O)c2cccc3ccccc23)C1 (centres undefined),-7,7,-11,-25,4519,-1.7,2
O=C(O)c1ccc(NS(=O)(=O)c2ccc(NC(=O)c3ccccc3Cl)cc2)cc1,1,-4,9,-12,3422,1.1,6
CC1CCN(CCc2nc3cc(NC(=O)COc4ccc([N+](=O)[O-])cc4)ccc3n2C)CC1,5,0,-4,-11,5849,3.6,4
